RN4220 kill – S. aureus RN4220 growth inhibition. OD600, 16 h. inhibition, % (no concentration beside the values). 0.33% of 330,000 active. AID 1259311;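 active = z-score of -3 or lower and OD600 up to 0.18 on both plates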;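 also: plate controls were untreated cells for no effect and reference antibiotic for full effect; stock transfer was 100 nL into about 80 µL; one replicate is shown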
BJeLR lethal – BJeLR cell viability loss. BJeLR (HRASV12) viability, CellTiter-Glo ATP luminescence, 48 h; reference of the scale not given here. inhibition, % (test concentration not listed). 0.17% of 300,000 active;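 active = replicate mean above 50%; inconclusive = above 50% but judged a plate artefact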;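 also: 50 nL library stock added to about 25 µL; numbers are from one replicate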
Mtb hypoxia inh – Mtb hypoxia fluorescent reporter inhibition | 0.1% of 300,000 active | M. tuberculosis hypoxia-regulated fluorescent reporter, fluorescence | fluorescence inhibition, % (test concentration not listed) | AID 1159583;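 active = 35 to 45% if threefold the growth effect, above 45% if 1.5-fold the growth effect; inactive = the rest, general growth blockers included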;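 also: wells of about 50 µL received 100 nL stock; 0% = vehicle wells and 100% = reference inhibitor wells; whole bacteria with a GFP reporter of the hypoxia response; strong numbers were not always called active; many hits fall short of the cut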
Autofluor counter – flagged as autofluorescent in microsphere protease counterscreen | compound autofluorescence counterscreen, microsphere flow cytometry; active compounds read high | fluorescence intensity (no concentration beside the values) | 3.1% of 360,000 active;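 active = at least 3 SD above the mean of all compounds, about 16000 in these data; inconclusive = too few beads counted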;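 also: 100 nL of 1 mM stock went into each well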
PrP 5UTR inh – suppresses PrP 5' UTR mRNA reporter expression | inhibition, % (concentration not given with the values) | cell-based PrP 5' UTR mRNA reporter, plate reader | 0.35% of 340,000 active;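 active = every replicate at 50% or more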;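 also: 0 = median of the neutral control wells; tested in H4 reporter cells; numbers are from one replicate; inactives centre near -14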
Sa ugtP lethal – kills S. aureus RN4220 lacking UgtP. S. aureus RN4220 ugtP deletion, OD600 growth, 16 h; some inactives read as strong as hits. 0.54% of 330,000 active. growth inhibition, % (concentration not given with the values);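 active = z-score under -3 and OD600 up to 0.15 on both plates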;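 also: plate controls were untreated wells for no effect and antibiotic for full effect; wells of about 80 µL received 100 nL stock; the first replicate is given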
Mtb hypoxia inh growth – recorded beside Mtb hypoxia inh, whose call it bears; growth inhibition, %; measured here: M. tuberculosis growth (absorbance);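 0% = vehicle and 100% = reference antibiotic; read after six days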
* marks the source's active call; other numbers are inactive results; ? = inconclusive; . = no result given.

[1] CC(C)(C)c1ccc(C(=O)NCc2ccc(Cl)cc2)cc1
[2] COCCN1Cc2cccc(C(=O)Nc3ccc(C)cc3)c2C1=O
[3] Cc1ccc(NC(=O)N2CCCC(C(=O)O)C2)cc1 (stereo unspecified)
[4] COc1cccc(NC(=O)Cn2cnc3c(oc4nc5c(cc43)CCCC5)c2=O)c1
[5] COC(=O)C(C)NC(=O)c1ccc(C(C)(C)C)cc1 (stereo unspecified)
[6] CC(=O)Nc1ccc(NC(=O)CSc2nnc(-c3cccnc3)o2)cc1
[7] COc1ccc(C2=CC(=O)CC(c3ccc(OC)c(OC)c3)C2)cn1 (stereo unspecified)
[8] O=C(CN1CCOc2ccccc21)NCc1ccccc1

screen / no.,1,2,3,4,5,6,7,8
Mtb hypoxia inh growth,-2,31,3,-1,12,1,4,.
Mtb hypoxia inh,9,12,10,6,11,7,1,.
Autofluor counter,6784,2647,4225,6510,2182,?,.,6222
RN4220 kill,-2.4,-0.8,2.7,1.9,1.7,-0.2,8.6,1.3
Sa ugtP lethal,13,2,-3,1,16,-4,2,4
BJeLR lethal,-1,0,-11,3,-8,-5,.,-12
PrP 5UTR inh,-30,-1,-3,-10,2,-27,.,-12

[9] Cc1c(NC(=O)CS(=O)(=O)c2ccccc2)c(=O)n(-c2ccccc2)n1C
[10] Cc1cc2ncn(CCOc3ccccc3C#N)c2cc1C
[11] COc1cccc(C(=O)N(CN2CCCC2=O)c2cccc(Cl)c2)c1
[12] CCCCn1c(=O)[nH]c(=O)c2c1nc(Cn1ncc(Cl)c(Cl)c1=O)n2CCC
[13] COC(=O)Nc1ccc2ncn(C)c(=O)c2c1
[14] CC(C)(C)c1ccc(C(=O)NCC(=O)O)cc1
[15] NNC(=O)C1CCN(S(=O)(=O)c2ccc(Cl)cc2)CC1
[16] S=c1[nH]nc(-c2ccc(Cl)cc2Cl)n1-c1ccc(Cl)cc1

screen / no.,9,10,11,12,13,14,15,16
Mtb hypoxia inh growth,-2,8,6,.,-1,-1,5,7
Mtb hypoxia inh,8,13,-3,.,-7,-5,11,7
Autofluor counter,4078,2829,6225,4672,5205,4057,6529,.
RN4220 kill,4.5,19,-3.4,.,0.0,0.3,1.0,8.8
Sa ugtP lethal,4,11,-5,.,-17,6,-2,17
BJeLR lethal,-2,7,-2,-27,3,3,-1,-9
PrP 5UTR inh,-40,-12,-15,-29,-35,-1,-20,37

[17] CCOc1cc(C=NNC(=O)c2ccncc2)cc(Cl)c1OS(C)(=O)=O
[18] C=C(C)Cn1c(N2CC(C)CC(C)C2)nc2c1c(=O)[nH]c(=O)n2C (stereo unspecified)
[19] CSc1ncccc1C(=O)OCC(=O)NC(C)C
[20] COCCN(C(=O)c1snc(C(N)=O)c1N)C(C(=O)NC1CCCCC1)c1cc(OC)c(OC)c(OC)c1 (stereo unspecified)
[21] COc1ccc(-c2nnn(CCc3nn[nH]n3)n2)cc1OC
[22] O=C1CCc2cc(S(=O)(=O)NC(Cc3ccccc3)C(=O)NC3CCCC3)ccc2N1 (stereo unspecified)
[23] COc1ccc(OC)c(NC(=O)C2CCCN(S(=O)(=O)c3ccc(-n4cnnn4)cc3)C2)c1 (stereo unspecified)
[24] C=CCSc1nnc(-c2cc(C(C)(C)C)nn2Cc2ccc(F)cc2)n1C

screen / no.,17,18,19,20,21,22,23,24
Mtb hypoxia inh growth,4,7,13,10,7,.,4,1
Mtb hypoxia inh,15,9,2,6,-5,.,1,3
Autofluor counter,.,4285,3877,3240,21931*,4272,3845,6654
RN4220 kill,-0.6,3.0,-2.2,-4.7,2.2,-1.6,0.6,4.6
Sa ugtP lethal,18,11,4,-1,0,2,-3,2
BJeLR lethal,.,-1,2,-12,-11,-2,-12,2
PrP 5UTR inh,.,1,-63,-11,-18,4,-22,-17

Fetched by compound from the list above, 4 records:
[11] COc1cccc(C(=O)N(CN2CCCC2=O)c2cccc(Cl)c2)c1
[1] CC(C)(C)c1ccc(C(=O)NCc2ccc(Cl)cc2)cc1
[16] S=c1[nH]nc(-c2ccc(Cl)cc2Cl)n1-c1ccc(Cl)cc1
[9] Cc1c(NC(=O)CS(=O)(=O)c2ccccc2)c(=O)n(-c2ccccc2)n1C

screen / no.,11,1,16,9
Mtb hypoxia inh growth,6,-2,7,-2
Mtb hypoxia inh,-3,9,7,8
Autofluor counter,6225,6784,.,4078
RN4220 kill,-3.4,-2.4,8.8,4.5
Sa ugtP lethal,-5,13,17,4
BJeLR lethal,-2,-1,-9,-2
PrP 5UTR inh,-15,-30,37,-40

(list continues)
[25] O=c1[nH]c(SCc2ccccc2)nc2ccsc12
[26] O=C(CCc1nc2ccccc2c(=O)[nH]1)NCCN1C(=O)S/C(=C\c2ccc(OC(F)F)cc2)C1=O
[27] CN(C)c1ccc(CN2CCCCCC2)cc1
[28] CC(C)CC(NC(=O)C1CCC(C)CC1)C(=O)Nc1ccccn1 (stereo unspecified)
[29] CC1(C)Cc2c(sc3nc(SCC(=O)O)nc(N)c23)CO1
[30] CCC[C@@H](CN[C@@H](CNC)[C@H](C)CC)NCC1CCC(C(C)(C)C)CC1 (stereo partly specified)
[31] CCOC(=O)C1(Cc2cccc(OC)c2)CCN(C2CCOCC2)CC1
[32] COc1cc(C(=O)N2CCCc3ccccc32)cc(OC)c1OC

screen / no.,25,26,27,28,29,30,31,32
Mtb hypoxia inh growth,4,4,7,2,7,.,0,.
Mtb hypoxia inh,6,1,-3,3,5,.,10,.
Autofluor counter,3873,4184,9695,3870,3280,4389,4860,3322
RN4220 kill,4.9,5.4,2.2,3.3,-2.7,.,5.2,4.4
Sa ugtP lethal,-3,-2,-3,5,8,.,5,4
BJeLR lethal,-1,.,0,1,-3,4,-1,2
PrP 5UTR inh,-13,-12,-3,-41,-27,5,-9,2

[33] COc1ccc(CNC(=O)CN(C(=O)c2csnn2)c2ccc(F)cc2)cc1
[34] Cn1c(SCCOc2cccc(Cl)c2)nnc1-c1ccncc1
[35] C#CCNC(=O)C1=C[C@H](c2coc3ccccc3c2=O)C[C@H](OCc2ccc(CO)cc2)O1
[36] CCOC(=O)C1(CC2CCCCO2)CCN(Cc2cccnc2)CC1 (stereo unspecified)
[37] CCOC(=O)c1c(NC(=O)CSc2nc3nc(C)cc(C)n3n2)sc(CC)c1C
[38] CN=C(N)NCCCC(N)C(=O)O (stereo unspecified)
[39] COc1cc2c(C#N)c(N3CCc4ccccc4C3)nc(N)c2c(N)n1
[40] COC(=O)c1c(C)n(Cc2ccccc2)c2ccc(O)cc12

screen / no.,33,34,35,36,37,38,39,40
Mtb hypoxia inh growth,6,.,.,9,4,10,-9,-1
Mtb hypoxia inh,-7,.,.,8,1,1,-70,3
Autofluor counter,3483,3230,3609,2142,2086,.,3674,4839
RN4220 kill,3.2,2.9,.,4.2,5.9,1.0,3.6,5.0
Sa ugtP lethal,-6,8,.,-1,6,-3,-23,-2
BJeLR lethal,-5,3,-7,0,-2,.,2,6
PrP 5UTR inh,-23,2,-2,-8,-8,.,-8,-10

[41] O=C(CNC(=O)c1sc2ccccc2c1Cl)Nc1ccccc1F
[42] NS(=O)(=O)c1ccc(NC(=O)NC2CCCCC2)cc1
[43] CCOc1ccccc1CNC(=O)CNC(=O)c1cccs1
[44] CC1=Nn2c(nnc2-c2ccccc2Cl)SC1
[45] Cc1ccc(S(=O)(=O)N2CCN(C(=O)COC(=O)CNC(=O)c3ccc(Cl)cc3Cl)CC2)cc1
[46] Cn1c(O)c(N=NC(=N)N)c2ccccc21
[47] CS(=O)(=O)N(Cc1ccccc1)c1ccc(C(=O)Nc2ccccc2C(=O)O)cc1
[48] Cc1cc(=O)oc2cc(NC(=O)COc3ccccc3[N+](=O)[O-])ccc12

screen / no.,41,42,43,44,45,46,47,48
Mtb hypoxia inh growth,-6,.,3,6,-1,-3,6,-9
Mtb hypoxia inh,-2,.,4,11,0,-2,0,-1
Autofluor counter,?,2005,6052,8908,6804,3523,4280,4296
RN4220 kill,2.6,.,1.9,3.4,0.2,13,4.9,3.8
Sa ugtP lethal,3,.,3,2,0,4,1,7
BJeLR lethal,0,1,3,7,-4,-1,-5,.
PrP 5UTR inh,-8,-13,-16,-14,1,-4,-54,-29

[49] Cc1onc(-c2c(Cl)cccc2Cl)c1C(=O)Nc1c(C)n(C)n(-c2ccccc2)c1=O
[50] CCCCCC(=O)Nc1cccc(C2=NOC3(C2)CC(C(N)=O)N(C(=O)c2cc([N+](=O)[O-])cc([N+](=O)[O-])c2)C3)c1 (stereo unspecified)
[51] COc1ccc(CCNC(=O)C23CN(Cc4ccccc4)CC2C(c2cccc([N+](=O)[O-])c2)=NO3)cc1 (stereo unspecified)
[52] COCc1cc(=O)[nH]c(N=C(N)Nc2cccc(C)c2)n1
[53] COc1ccccc1NC(=O)N(Cc1ccco1)Cc1cc2ccc(C)c(C)c2[nH]c1=O
[54] CN(C(=O)COC(=O)CCc1c[nH]c2ccccc12)c1ccccc1
[55] CC(C)CCNC(=O)c1cc([N+](=O)[O-])ccc1N1CCOCC1
[56] CN1CCN(C(=O)C2CCCN(S(=O)(=O)c3ccccc3)C2)CC1 (stereo unspecified)

screen / no.,49,50,51,52,53,54,55,56
Mtb hypoxia inh growth,.,.,8,-1,8,2,2,11
Mtb hypoxia inh,.,.,2,8,16,8,7,11
Autofluor counter,2679,.,3680,.,3185,5144,2461,6339
RN4220 kill,-2.7,9.3,5.1,1.8,-13,6.6,2.9,4.2
Sa ugtP lethal,11,-7,2,-1,-3,13,2,5
BJeLR lethal,1,.,-7,.,32,0,-5,6
PrP 5UTR inh,-15,.,-14,.,-23,-12,-14,-6

Results in sequence from above:
Autofluor counter, entries 49–56: 2679, ., 3680, ., 3185, 5144, 2461, 6339

New compounds follow.
[57] Oc1ccc(C=NNP(=S)(c2ccccc2)c2ccccc2)cc1O
[58] Cc1ccc(C(=O)Oc2ccc3ccc(=O)oc3c2)cc1
[59] COc1ccc(NC(=O)Cc2c(Sc3ccccc3)c3ccccc3n2C)cc1
[60] O=C(CCc1[nH]c2ccccc2c1Sc1ccccc1)N(CCO)CCO
[61] COc1cc(/C=N/n2c(COc3ccccc3)n[nH]c2=S)cc(Br)c1O
[62] CC(NS(=O)(=O)c1ccc(Cl)cc1)C(=O)N1CCOCC1 (stereo unspecified)
[63] COc1cc(-c2[nH]ncc2CN(C)Cc2nonc2C)cc(OC)c1OC
[64] COc1cc(C=NN2C(=O)c3ccccc3NC2(C)c2cccc([N+](=O)[O-])c2)cc(Br)c1O (stereo unspecified)
[65] CCOC(=O)c1c(NC(=O)COC(=O)CCS(=O)(=O)c2ccc(C)cc2)sc(C)c1C
[66] CCOC(=O)NCc1ccc(S(=O)(=O)Nc2c(C)cccc2C)cc1

screen / no.,57,58,59,60,61,62,63,64,65,66
Mtb hypoxia inh growth,8,-19,4,3,.,-1,-1,5,4,2
Mtb hypoxia inh,12,-12,12,4,.,-5,-1,1,5,2
Autofluor counter,.,3722,2495,7909,3806,3853,4151,.,2038,10874
RN4220 kill,5.8,3.7,-6.7,9.0,.,0.0,4.0,19,-1.2,11
Sa ugtP lethal,-8,3,4,-6,.,-1,11,-3,-5,-1
BJeLR lethal,.,-4,17,6,1,-1,0,.,-6,-7
PrP 5UTR inh,.,-14,-33,-8,-15,16,-27,.,-30,-12
